Screens deposited in PubChem BioAssay by Broad Institute.
Tgondii IFNg – inhibitors of Toxoplasma gondii growth with IFN-gamma; Toxoplasma gondii growth in IFN-gamma-treated host cells; active compounds read low; reference of the scale not given here; AID 1259416; 3.8% of 69,000 active; activity change, negative = inhibition, %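 (about 20 µM by stock and volumes)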;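 active = below -70%; inconclusive = fit judged invalid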;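 note: host cells are HeLa cells infected with Toxoplasma gondii; parasite growth read as luciferase light; one replicate is shown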
* = called active by the depositor; i = inactive; ? = inconclusive; & = joins results of further samples; ! = not active in a repeat. The list is partial; count on the stated rates, not on these rows.

The opening 3 records, to show the layout:
SMILES | Tgondii IFNg
Cc1cc(C)c2[nH]c(C(=O)NCCc3cnc[nH]3)c(C)c2c1 | -9
CCCCOc1ccccc1-c1cc2c(=O)n(Cc3nc(-c4ccccc4C)oc3C)ccn2n1 | 32
CN(C)CC(=O)N1C[C@H]2CCC[C@]2(COCc2ccncc2)C1 | 2

The listing (from the top)
SMILES | Tgondii IFNg
Cc1cc(C)c2[nH]c(C(=O)NCCc3cnc[nH]3)c(C)c2c1 | -9
CCCCOc1ccccc1-c1cc2c(=O)n(Cc3nc(-c4ccccc4C)oc3C)ccn2n1 | 32
CN(C)CC(=O)N1C[C@H]2CCC[C@]2(COCc2ccncc2)C1 | 2
O=C(O)CNC(=O)CSc1ccc(Cl)cc1 | 28
CCN1CCN(C)C(=O)C12CCN(C(=O)c1cnc(C)cn1)CC2 | 5
CC(C)[C@H](NS(=O)(=O)c1ccc(-c2ccc(Br)cc2)cc1)C(=O)O | 37
CCOC(=O)c1c(NCc2ccc(C)o2)c2cc(F)ccc2[nH]c1=O | 19
CC[C@@H](C(=O)O)C1CC[C@H](C)C([C@@H](C)[C@H](O)[C@H](C)C(=O)[C@H](CC)C2O[C@]3(C=C[C@@H](O)[C@]4(CC[C@@](C)(C5CC[C@](O)(CC)[C@H](C)O5)O4)O3)[C@H](C)C[C@@H]2C)O1 (stereo partly specified) | -79*!
CCN1CCC2(CC1)OC(=O)C(C)=C2C(=O)NCCCN1CCc2ccccc2C1 | 63
Cc1nc(-c2cccc(F)c2)sc1CCNS(=O)(=O)c1ccc(Cl)cc1 | 23
O=C(NCc1ccccc1)c1c(O)c2cccnc2[nH]c1=O | 8
O=C1CSC(CS(=O)(=O)Cc2cccc(C(F)(F)F)c2)=N1 | 2
CC(C)c1ccc(S(=O)(=O)N2CCc3c(CNc4ncccn4)nn(C)c3C2)cc1 | -13
Cc1cc(NC(=O)Cn2c(=O)cc(-c3nc(C(C)C)no3)c3ccccc32)ccc1F | -16
COc1ccc(CN(Cc2cccc(C)c2)C(=O)C2CCOCC2)cc1 | -3
CCOC(=O)c1c(NC2SC(=O)N(c3ccccc3)C2=O)sc(C)c1C (stereo unspecified) | 95
Cc1ccc2[nH]c(=O)c(-c3nc(-c4ccccc4Br)no3)c(O)c2c1 | -9
Cc1ccc(C2C3C(=O)N(C(C)C)C(=O)C3ON2c2ccc(Cl)cc2)cc1 (stereo unspecified) | -5
Cc1c(C(=O)NCc2cccnc2N2CCOCC2)n(C)c2c(C)cccc12 | -8
CCCCCN1CC2CN(C(=O)Nc3ccccc3)CC21 (stereo unspecified) | 129
CC(=O)N1CCc2c(nc(-c3ccncc3)nc2NC(C)c2ncc[nH]2)C1 (stereo unspecified) | 19
O=C(O)CCc1c(C(=O)O)[nH]c2cc(Cl)cc(Cl)c12 | -43
CCOC(=O)Cn1c(-c2cccs2)cc2cccnc21 | i
CCc1ccc(NS(=O)(=O)c2cc3c4c(c2)CCN4C(=O)CC3)cc1 | -5
O=C1c2ccccc2C(=O)N1CCC1=NCCc2ccccc21 | 6
O=C(NCCc1csc(-c2ccc(Cl)cc2)n1)c1ccc(F)cc1 | -60
CCOc1ccccc1-c1noc(-c2c(O)c3cc(F)ccc3n(CC)c2=O)n1 | -49
O=C1SCC1(c1ccccc1)c1ccccc1 | 15
CCc1c(C)nc(C2CCCN2C(=O)C2CCN(S(=O)(=O)CC)CC2)[nH]c1=O (stereo unspecified) | -6
Cc1nc2ccc(Cl)cn2c1CN(C)CC1CC(=O)N(C2CCCC2)C1 (stereo unspecified) | 3
C/C=C/c1ccccc1[C@H]1[C@@H](C#N)N(C(=O)NC2CCCCC2)[C@H]1CO | -19
Cn1cc(C(=O)N2CC[C@H]3[C@@H]2CCN3S(C)(=O)=O)cn1 | 1
Cc1cccc(S(=O)(=O)N2CC[C@@H]3[C@@H](CO)N(C)c4ccc(Br)cc4[C@@H]32)c1 | 14
COc1ccc(CCCC(=O)O)c(C)c1 | -3
CC(=O)Cc1nsc(NC(=O)c2ccc(-c3cccc(C(F)(F)F)c3)o2)n1 | -2
Cc1cc(=O)n(CCC(=O)Nc2ccc3c(c2)N(C)C(=O)CO3)c2ccccc12 | 1
C=CCN1CC(C(=O)O)CN2CCN(Cc3csc(C)n3)CC2C1 (stereo unspecified) | -7
CC(c1ccc2c(c1)OCCO2)N(C)C(=O)c1cn(-c2ccccc2)nn1 (stereo unspecified) | 2
Cc1ccccc1C(=O)O/N=C1\C(=O)c2ccccc2-c2ccccc21 | -86*
CCc1nc(CN2CCc3onc(-c4cccc5ccccc45)c3C2)c(C)[nH]1 | -30
COCCN(C)C(=O)c1nc(-c2cn(C(C)C)c(C)n2)n2ccccc12 | 16
CNc1cc(CNC(=O)c2c(C)oc3c2CCCC3)nc(-c2cccnc2)n1 | -11
Cc1nc(CN2CCC3(CC2)C(c2cnn(C)c2)CC(=O)N3C)cs1 (stereo unspecified) | 10
C#CCn1nnc(-c2cc(C(F)(F)F)cc(C(F)(F)F)c2)n1 | 82
CCN(CC)c1ncnc2c1cnn2CC(=O)N1CCN(c2ccccn2)CC1 | 156
c1cc(-n2cnnc2)cc(-n2cnc3ccccc32)c1 | -7
COCCN1C(=O)N(CCc2ccc(OC)cc2)C2(CCN(Cc3ccsc3)CC2)C1=O | -7
O=C1NC(c2ccc(Cl)cc2)Nc2c1sc(=S)n2-c1ccccc1 (stereo unspecified) | -14
CSc1sc(C(C)=O)c(-c2ccc(Cl)cc2)c1C#N | 11
COc1ccc(C(C)=O)cc1CSc1ccc(Cl)cc1 | 23
Next part:
SMILES | Tgondii IFNg
O=c1c2ccccc2nnn1Cc1cccc2ccccc12 | 46
O=C(C1CCCC1)N1[C@@H](CO)[C@@H](c2ccccc2)C12CN(Cc1ccc(F)cc1)C2 | -26
COC1COC2(CCN(Cc3cccn3C)CC2)C1 (stereo unspecified) | 2
CCOC(=O)c1ccc(N2CCOCC2)c(NC(=S)Nc2cccc(SC)c2)c1 | 161
CN1C(=O)C(CCC(=O)Nc2cccnc2)(Cc2ccccc2)c2ccccc21 (stereo unspecified) | 5
Cc1cc(-n2cccn2)ccc1CN1CCOC(c2ccc(F)cc2)C1 (stereo unspecified) | -61
CCS(=O)(=O)N1C[C@@H]2[C@H](C1)c1ccccc1[C@@H]2N1CCOCC1 | 5
CCOC(=O)c1oc2nc(-c3ccc(Cl)cc3)cc(-c3ccccc3)c2c1N | 45
COc1ccc2c(c1)NC1(CCN(C(=O)NCCc3ccccc3)CC1)c1cccn1-2 | 131
CCS(=O)(=O)N1CCCn2nnc(Cn3cccc3)c2C1 | -39
O=C1c2cccc3cccc(c23)C(=O)N1c1ccccn1 | 16
Cc1cc(Cc2c(F)cccc2F)cc(C2CCN(C(=O)CC3CCCCO3)CC2)n1 (stereo unspecified) | -20
Cc1ccsc1[C@@H]1CCN(Cc2cccc3[nH]ccc23)C[C@H]1O | 1
COC(C)c1cccc(-c2cc(C(=O)O)cc(S(=O)(=O)NC(C)C)c2)c1 (stereo unspecified) | 60
CO[C@@H]1CC[C@@H]2CCOc3c(C#N)cccc3C(=O)N(C)C[C@@H](c3ccccc3)CC(=O)N(C)C[C@H]1O2 | -33
COc1ccc(S(=O)(=O)Nc2cccc3c2O[C@@H](CN(C)CC2CCCCC2)[C@@H](C)CN([C@H](C)CO)C3=O)cc1 | -37
OC[C@@H]1[C@@H](c2ccc(C#Cc3ccccc3F)cc2)[C@@H]2CN(CC3CCOCC3)CCCCN12 | -7
COc1ccc2c3c([nH]c2c1)[C@H](CO)N(C(C)=O)CC31CN(Cc2ccccc2Cl)C1 | -9
CCCC(=O)N1CCCC1c1ncc(C(=O)Nc2ccccc2OC)c(C)n1 (stereo unspecified) | -8
C=CCOCC12CCCOC1CCN(C(=O)Cc1ccsc1)C2 (stereo unspecified) | -34

Another view of 31 compounds above:
| SMILES | Tgondii IFNg |
| --- | --- |
| CC(C)c1ccc(S(=O)(=O)N2CCc3c(CNc4ncccn4)nn(C)c3C2)cc1 | -13 |
| Cc1cc(NC(=O)Cn2c(=O)cc(-c3nc(C(C)C)no3)c3ccccc32)ccc1F | -16 |
| COc1ccc(CN(Cc2cccc(C)c2)C(=O)C2CCOCC2)cc1 | -3 |
| CCOC(=O)c1c(NC2SC(=O)N(c3ccccc3)C2=O)sc(C)c1C (stereo unspecified) | 95 |
| Cc1ccc2[nH]c(=O)c(-c3nc(-c4ccccc4Br)no3)c(O)c2c1 | -9 |
| Cc1ccc(C2C3C(=O)N(C(C)C)C(=O)C3ON2c2ccc(Cl)cc2)cc1 (stereo unspecified) | -5 |
| Cc1c(C(=O)NCc2cccnc2N2CCOCC2)n(C)c2c(C)cccc12 | -8 |
| CCCCCN1CC2CN(C(=O)Nc3ccccc3)CC21 (stereo unspecified) | 129 |
| CC(=O)N1CCc2c(nc(-c3ccncc3)nc2NC(C)c2ncc[nH]2)C1 (stereo unspecified) | 19 |
| O=C(O)CCc1c(C(=O)O)[nH]c2cc(Cl)cc(Cl)c12 | -43 |
| CCOC(=O)Cn1c(-c2cccs2)cc2cccnc21 | i |
| CCc1ccc(NS(=O)(=O)c2cc3c4c(c2)CCN4C(=O)CC3)cc1 | -5 |
| O=C1c2ccccc2C(=O)N1CCC1=NCCc2ccccc21 | 6 |
| O=C(NCCc1csc(-c2ccc(Cl)cc2)n1)c1ccc(F)cc1 | -60 |
| CCOc1ccccc1-c1noc(-c2c(O)c3cc(F)ccc3n(CC)c2=O)n1 | -49 |
| O=C1SCC1(c1ccccc1)c1ccccc1 | 15 |
| CCc1c(C)nc(C2CCCN2C(=O)C2CCN(S(=O)(=O)CC)CC2)[nH]c1=O (stereo unspecified) | -6 |
| Cc1nc2ccc(Cl)cn2c1CN(C)CC1CC(=O)N(C2CCCC2)C1 (stereo unspecified) | 3 |
| C/C=C/c1ccccc1[C@H]1[C@@H](C#N)N(C(=O)NC2CCCCC2)[C@H]1CO | -19 |
| Cn1cc(C(=O)N2CC[C@H]3[C@@H]2CCN3S(C)(=O)=O)cn1 | 1 |
| Cc1cccc(S(=O)(=O)N2CC[C@@H]3[C@@H](CO)N(C)c4ccc(Br)cc4[C@@H]32)c1 | 14 |
| COc1ccc(CCCC(=O)O)c(C)c1 | -3 |
| CC(=O)Cc1nsc(NC(=O)c2ccc(-c3cccc(C(F)(F)F)c3)o2)n1 | -2 |
| Cc1cc(=O)n(CCC(=O)Nc2ccc3c(c2)N(C)C(=O)CO3)c2ccccc12 | 1 |
| C=CCN1CC(C(=O)O)CN2CCN(Cc3csc(C)n3)CC2C1 (stereo unspecified) | -7 |
| CC(c1ccc2c(c1)OCCO2)N(C)C(=O)c1cn(-c2ccccc2)nn1 (stereo unspecified) | 2 |
| Cc1ccccc1C(=O)O/N=C1\C(=O)c2ccccc2-c2ccccc21 | -86* |
| CCc1nc(CN2CCc3onc(-c4cccc5ccccc45)c3C2)c(C)[nH]1 | -30 |
| COCCN(C)C(=O)c1nc(-c2cn(C(C)C)c(C)n2)n2ccccc12 | 16 |
| CNc1cc(CNC(=O)c2c(C)oc3c2CCCC3)nc(-c2cccnc2)n1 | -11 |
| Cc1nc(CN2CCC3(CC2)C(c2cnn(C)c2)CC(=O)N3C)cs1 (stereo unspecified) | 10 |

The results go on:
SMILES | Tgondii IFNg
O=S(=O)(c1cccs1)N1CCCC1c1ccccn1 (stereo unspecified) | -6
C[C@@H]1CN([C@H](C)CO)C(=O)c2cc(NS(=O)(=O)c3cccs3)ccc2O[C@@H](C)CCCCO[C@@H]1CN(C)Cc1ccc(Cl)c(Cl)c1 | -68
CCN(Cc1cc(Cl)ccc1OC)C(=O)CN1CCOCC1 | 37
OC(CNCc1ccccc1)Cn1c2ccc(Cl)cc2c2cc(Cl)ccc21 (stereo unspecified) | -91*
O=C(Nc1ccc(F)cc1F)c1cccc(CN2[C@@H]3CC[C@H]2CC(O)C3)c1 (stereo partly specified) | 1
COCCN1CCc2nc(SCc3nc(-c4ccc(C)cc4)oc3C)[nH]c(=O)c2C1 | 10
CC(C)C(NC(=O)c1ccccc1C(F)(F)F)C1=CCCN(C)C1 (stereo unspecified) | 5
COc1ccc(-c2nc(Cc3noc(-c4ccccc4)n3)c(C)o2)cc1 | -21
COCc1nc(N(C)Cc2nccn2C)c2cnn(C)c2n1 | 8
CC(CC(=O)N1CCC(c2ncc(Cl)cc2S(C)(=O)=O)CC1)n1cncn1 (stereo unspecified) | -27
O=C(CCc1cnccn1)N1CCOC(c2ccc(Cl)c(Cl)c2)C1 (stereo unspecified) | -10
Cc1cccc(S(=O)(=O)N2CCC(N3CCCC3)CC2C(=O)O)c1 (stereo unspecified) | 1
CN(C(=O)CSc1ccc(C(F)(F)F)cn1)c1c2c(nn1C)CCCC2 | -26
Cc1ccc(C)c(-c2noc(-c3c(O)c4ccccc4n(C)c3=O)n2)c1 | 40
COc1ccccc1Cc1cnc(C2CCNCC2)cn1 | -62
COCCn1c(-c2ccccc2)cnc1N | -9
O=C(Cn1c(=O)cc(C(=O)N2CCCCC2)c2ccccc21)Nc1ccccc1F | -4
O=C(CCSc1c(Cl)cccc1Cl)c1ccc(Cl)s1 | -4
O=C(O)c1cc2nccc(-c3ccco3)n2n1 | 48
COc1ccc(CCNc2cnn(-c3ccccc3)c(=O)c2Cl)cc1OC | -83*
Cn1ccnc1CN1CCc2ncnc(-c3ccc(F)cc3)c2CC1 | -5
NC(=O)N1CCc2[nH]nc(C(=O)N3CCOCC3)c2C1 | -9
c1ccc(Oc2nc(NCc3ccco3)nc(NCc3ccco3)n2)cc1 | -18
O=C(O)/C=C/c1ccc(Cn2ccnc2)cc1 | 13&10
CC(C)c1ccc(CNCCCN(C)C)cc1 | -38
C[C@@H]1CN([C@@H](C)CO)C(=O)CCCn2nncc2CO[C@@H]1CN(C)C(=O)Nc1ccccc1C(F)(F)F | ?
